# Rango dissoc inh: qHTS Assay for Inhibitors of RanGTP induced Rango (Ran-regulated importin-beta cargo) - Importin beta complex dissociation; Snurportin-1 (Homo sapiens) + GTP-binding nuclear protein Ran (Homo sapiens) + Importin …; Biochemical FRET Rango-importin beta, RanGTP-induced dissociation; Potency, µM (top dose mostly 46.1 µM), for the others: at the top dose activity change, negative = inhibition; 340,000 tested, 0.071% active; active means falling FRET ratio curve, often poorly fitted, with flat reads before Ran was added; inconclusive means other falling curves, or compound fluorescence or quenching; inactive means flat or rising ratio curve;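 further: potency means the concentration at half of the fitted maximal effect; % of control where 0% means no effect; nearly all actives have a fitted effect of over 45% in size; -100% = wells without RanGTP and RCC1; the record marks most hits as doubtful in a second field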
#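 Rango/importin beta premix (0.1/0.25 uM final), PBS + 1 mM DTT + 0.02% Tween-20 + 0.1% BSA; cpd 5 min RT; FRET pre-read; + RanGTP-RCC1 (0.6 uM Ran, 2 mM GTP, 0.2 uM RCC1); 45 min RT; FRET post-read, ex 430, em 486/530 nm.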
# GLA inh pH 4.5: qHTS Assay for Inhibitors of Human alpha-Galactosidase at pH 4.5; purified enzyme, 4-MU-alpha-Gal fluorescence, pH 4.5; activity change, negative = inhibition, % at 105 µM; 230,000 tested, under 10 active; inconclusive = small, poorly fitted or top-dose-only inhibition, or a rising curve; inactive = flat fitted curve, though single readings scatter; no compound was filed as active;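 further: 0% = full activity with enzyme and -100% = basal without enzyme; dose as in the result columns while the protocol names 77 µM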
# Target sequence (P06280 whole entry, looked up): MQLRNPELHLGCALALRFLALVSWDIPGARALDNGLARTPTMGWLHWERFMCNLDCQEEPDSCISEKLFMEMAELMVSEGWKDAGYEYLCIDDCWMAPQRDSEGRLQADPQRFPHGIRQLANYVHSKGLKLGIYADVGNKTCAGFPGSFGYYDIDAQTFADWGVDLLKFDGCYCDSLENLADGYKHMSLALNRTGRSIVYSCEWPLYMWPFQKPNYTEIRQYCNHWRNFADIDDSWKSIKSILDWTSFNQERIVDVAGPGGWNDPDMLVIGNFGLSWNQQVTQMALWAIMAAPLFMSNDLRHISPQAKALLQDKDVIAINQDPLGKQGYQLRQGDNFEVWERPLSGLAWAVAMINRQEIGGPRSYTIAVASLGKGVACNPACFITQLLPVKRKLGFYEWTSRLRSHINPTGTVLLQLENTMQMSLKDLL
# Rango-impB inh: qHTS Assay for Inhibitors of Rango (Ran-regulated importin-beta cargo) - Importin beta complex formation | Potency, µM (series often up to 92.2 µM), for the others: at the highest dose inhibition of complex formation | Rango CFP/YFP FRET sensor + importin beta, 45 min | 340,000 tested, 0.031% active | Importin subunit beta-1 (Homo sapiens), Q14974 | AID 540263, 2011; active = rising FRET ratio curve, often small or poorly fitted; inconclusive = mostly compound fluorescence or quenching in the first reads; inactive = flat curves in all reads;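 further: potency means the concentration at half of the fitted maximal effect; 0% = DMSO wells and 100% = buffer wells lacking importin beta; nearly all actives have a fitted effect of over 15% in size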
#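 FRET biosensor Rango (snurportin 1 IBB between N-terminal EYFP and C-terminal Cerulean), 50 nM in PBS/1 mM DTT/0.02% Tween-20/0.1% BSA, preincubated 5 min RT with compound; 0.125 microM importin beta added, 45 min RT, CFP/YFP FRET ratio read.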
# miR-21 FLuc: qHTS Assay for Modulators of miRNAs and/orActivators of miR-21 | HeLa miR-21 FLuc reporter, luciferase, 48 h | Potency, µM (top dose mostly 38.3 µM), inactives show at the top dose reporter change, positive = more light | 340,000 tested, under 10 active; active = well fitted rising curve with a large enough effect; inconclusive = small, poorly fitted or top-dose-only effect; inactive = no such curve, though single readings can be large or run the other way;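 further: % of control where 0% means no effect; miR-21 action dims this reporter so a rising signal means less miR-21 action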
#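 Luminescence from a firefly luciferase reporter carrying a miR-21 binding site downstream, stably expressed under a CMV promoter in HeLa cells that make miR-21 endogenously, reports miRNA modulation after 48 h compound exposure up to approximately 40uM final.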
# * = called active by the depositor; ? = inconclusive; nt = not tested or not shown; [ ] = remark or other dose.
Rango dissoc inh	GLA inh pH 4.5	Rango-impB inh	miR-21 FLuc	SMILES
7.1%	-8.6	-0.4%	-0.6%	COc1ccc(-c2ccc([C@H]3[C@H]4C=CC[C@@H](C)[C@@H]4C(=O)N3Cc3ccccc3)c(F)c2)cc1C
6.7%	-3.1	2.4%	0.3%	CC(C)OC(=O)C1C(=O)CC(C)(O)C(C(=O)OC(C)C)C1c1ccccc1 (configuration not stated)
-9.8%	3.4	0.5%	-8.4%	CCC(=O)Nc1ccc2c(c1)C(=O)N(C1CCCCC1)C2=O
-8.0%	1.9	-0.4%	1.6%	CCCCC(=O)NS(=O)(=O)c1ccc(N=NN(CC)CC)cc1
3.4%	-6.6	-0.2%	-4.0%	CC1=NN(C(=O)Cc2ccc(C)cc2)C(O)(c2cccnc2)C1 (configuration not stated)
-17.4%	-7.5	?	-2.4%	CCc1cc(=O)oc2cc(C)c(CN3CCCCC3)c(O)c12
-11.5%	nt	3.0%	nt	COc1ccc(OCCOC(=O)c2cc(S(=O)(=O)N3CCOCC3)c(Cl)cc2Cl)cc1
?	-4.0	?	-19.3%	c1ccc2c(c1)CCCN2Cc1nnc2n1CCCCC2
0.3%	12.6	1.4%	-1.3%	c1ccc(NCn2cncn2)nc1
7.3%	-9.5	0.6%	-13.6%	CN(C)c1ccc(C2C3C(=O)N(c4ccc(C(=O)O)cc4)C(=O)C3ON2c2ccccc2)cc1 (configuration not stated)
9.8%	nt	-2.7%	nt	CN(C(=O)c1cccc(NC(=O)Cc2cccc(NC(=O)C3CCN(C(=O)C4CC4)CC3)c2)c1)C1CCC1
4.0%	-1.6	-2.1%	-3.5%	O=c1c2c(n3cnnc3n1-c1ccccc1)-c1ccccc1CC21CCCC1
17.0%	-5.7	-0.5%	-20.5%	CCC(=O)Nc1nc2ccc(S(C)(=O)=O)cc2s1
-6.0%	1.1	0.0%	-35.2%	COc1ccc(C(=O)c2ccc(OC)cc2O)c(O)c1
-11.0%	nt	?	nt	CCC(C)Sc1cccc(-c2nc3ccc(C)cn3c2NCc2ccccc2)c1 (configuration not stated)
-10.0%	-3.7	-0.9%	-9.1%	O=C(Nc1ccc(Nc2ccccc2)cc1)C(Cl)Cl
5.5%	-5.7	4.0%	-8.3%	COc1ccc(N2C(=O)C3C4C=CC(c5ccccc5)(C3C2=O)C2C(=O)N(c3ccc(OC)cc3)C(=O)C42)cc1 (configuration not stated)
-0.3%	-3.9	0.8%	0.2%	CCOC(=O)CSc1nc2c([nH]c3ccccc32)c(=O)n1C
?	nt	1.7%	6.9%	COc1ccc(-n2nc(C(=O)NCC(=O)NCc3ccccc3OC)c3ccccc3c2=O)cc1
-17.7%	-5.4	-4.5%	-0.2%	N#Cc1ccccc1NC1=CC(=O)CCC1
-7.3%	3.1	0.3%	-17.8%	Nc1ccnc(Oc2ccc(F)cc2)c1
7.2%	nt	-0.7%	13.3%	COc1ccc(CN(C)C(=O)c2ccccc2Sc2ccccc2C#N)c(OC)c1
-21.7%	nt	?	-11.5%	O=C1NN(c2ccccc2)C(=O)/C1=C/c1ccc(-c2ccc(C(=O)O)cc2)o1
18.9%	7.8	3.9%	7.0%	Cn1c(Sc2ccc(C(F)(F)F)cc2[N+](=O)[O-])nnc1-c1ccccc1
16.8%	nt	2.4%	nt	Cc1cc(C(F)(F)F)c2c(C)nn(-c3ccccc3)c2n1
-14.2%	-8.1	2.2%	-10.9%	COc1ccc(N=N/C(=C\O)C(=O)c2ccco2)cc1
nt	2.9	nt	-14.5%	COC(=O)[C@@]1(Cc2ccc(OC)cc2)[C@H]2c3cc(C(=O)N4CCCC4)n(CCN4CCNC4=O)c3C[C@H]2CN1C(=O)c1ccccc1
16.5%	0.7	-0.4%	-56.3%	CC1CCN(c2oc(-c3ccccc3Cl)nc2C#N)CC1
-6.2%	nt	-3.9%	4.8%	COc1ccc(S(=O)(=O)N(CC(=O)NC2CC3CCC2C3)c2ccccc2OC)cc1 (configuration not stated)
-9.3%	0.0	-3.3%	8.7%	COCCn1c(N)c(C(=O)NS(=O)(=O)c2ccc(C)cc2)c(=O)[nH]c1=O
-21.9%	?	?	-0.1%	COc1cc2cc(C(=O)N3CCN(Cc4ccc5c(c4)OCO5)CC3)c(=O)oc2cc1OC
0.5%	nt	-2.0%	16.8%	NNC(=O)COc1ccc(-c2nccc(-c3ccc(F)cc3)n2)cc1
0.0%	-0.1	6.7%	-3.7%	CC(C)NC(=O)CSc1nc2ccccc2n1CC(=O)N1CCc2ccccc21
6.5%	3.6	6.5%	-1.9%	C=CCNC(=O)CN(c1ccc(OC)cc1OC)S(C)(=O)=O
-5.5%	nt	1.3%	nt	CCCN(C(=O)c1nc2nc(C)cc(C)n2n1)c1c(N)n(Cc2ccccc2)c(=O)[nH]c1=O
-11.5%	nt	1.3%	-2.5%	N/C(=N\OC(=O)Cc1ccc([N+](=O)[O-])cc1)c1ccc([N+](=O)[O-])cc1
?	-10.0	?	-4.6%	CCC(CC)c1nn2c(N)c(/C=C3\C=Nc4ccccc43)c(=O)nc2s1
6.7%	7.0	-1.9%	0.1%	COc1ccc(CCNC(=O)COc2ccc(-c3ccccc3)cc2)cc1OC
-3.6%	4.6	4.1%	-24.4%	CN(/N=C/C=C/c1ccccc1)C1=NS(=O)(=O)c2ccccc21
-12.3%	nt	0.8%	-2.9%	O=C(C1CCCCC1)N1CCC(O)(c2ccc(Cl)cc2)CC1
32.4%	-8.8	-3.3%	11.2%	CN(C)c1ccc(C(=O)OCC(=O)Nc2ccc(N3CCOCC3)cc2)cc1
?	nt	-2.3%	-5.3%	COc1ccc(C(=O)N2CCCC(O)C2)cc1OC1CCN(C(C)C)CC1 (configuration not stated)
-7.2%	nt	-0.6%	-3.4%	O=C(c1ccco1)N(Cc1cccc(Br)c1)C1CCS(=O)(=O)C1 (configuration not stated)
-2.6%	nt	0.7%	-23.7%	O=C(CN1CCN(c2ccccc2F)CC1)c1ccc(O)c(O)c1
12.3%	1.0	-2.6%	3.6%	Cn1nc(C(=O)NC2CCCc3ccccc32)ccc1=O (configuration not stated)
-6.7%	-1.7	-1.3%	0.1%	NNC(=O)c1sccc1OCc1cccc(C(F)(F)F)c1
-0.4%	-12.3	6.1%	-1.7%	CNC(=O)c1cc(NC(=O)CCn2nc(-c3ccccc3)c3ccccc3c2=O)ccc1OC
-1.2%	nt	-2.2%	nt	O=C(CN1C(=O)NC2(CCOc3ccccc32)C1=O)c1cccs1 (configuration not stated)
15.5%	-10.8	1.4%	2.8%	O=[n+]1cc(-c2cccc3ccccc23)n([O-])c2c1CCC2
0.9%	-5.6	0.6%	-6.2%	CCOc1ccc(C(C(=O)Nc2ccc(F)cc2)N(C(=O)Cn2nnc3ccccc32)C2CC2)cc1 (configuration not stated)
-13.8%	-13.9	-5.8%	-0.5%	O=C(CN1CC(c2ccccc2)CC1=O)OCc1cccc(Br)c1 (configuration not stated)
-2.9%	nt	0.1%	-7.4%	CCOC(=O)c1ccc(NC(=O)CNC(=O)c2ccco2)cc1
-22.8%	8.2	-0.8%	8.0%	CCOc1cc(/C=C\[N+](=O)[O-])ccc1OCC(=O)Nc1ccccc1C
-11.4%	-0.7	-0.7%	0.2%	Cn1nnnc1SCC(=O)N1CCOCC1
0.0%	6.4	1.1%	-0.5%	CC(=O)c1nn(-c2cccc(Br)c2)cc1C(=O)c1ccc(C)cc1
0.1%	5.9	3.2%	0.7%	CC1(c2cc([N+](=O)[O-])cc([N+](=O)[O-])c2)CC(C)(C)N(C(=O)c2ccccc2)c2ccccc21 (configuration not stated)
0.6%	nt	0.3%	nt	Cc1ccc(S(=O)(=O)N2CCCN(Cc3nc4ccccc4c(=O)[nH]3)CC2)cc1
-26.9%	nt	1.7%	nt	Cn1c(=O)c2[nH]c(C(O)c3ccc(Cl)cc3)nc2n(C)c1=O (configuration not stated)
-13.1%	nt	?	nt	Cc1cc(C)c2nc(SCC(=O)Nc3ccccc3N3CCOCC3)c(C#N)cc2c1
-14.4%	0.2[21.1 µM]	1.4%	2.1%	CCCCNC(=O)c1ccc(SCC(=O)N(CC)CC)c([N+](=O)[O-])c1

# The list continues:
Rango dissoc inh	GLA inh pH 4.5	Rango-impB inh	miR-21 FLuc	SMILES
-4.8%	2.0	?	-2.7%	O=C(COc1ncnc2sccc12)Nc1ccc(F)cc1F
-0.8%	-4.1	-1.2%	-1.6%	O=C(O)c1cc(S(=O)(=O)N2CCOCC2)c(Sc2ccccn2)cc1Sc1ccccn1
9.4%	-6.6	-0.8%	-3.6%	CC1CCN(c2nc3c(c(=O)[nH]c(=O)n3C)n2Cc2ccccc2)CC1
13.3%	nt	-2.8%	0.2%	O=C(O)c1cc2ccccc2c(N=Nc2cccnc2)c1O
?	-4.7	?	-6.5%	N#C/C(=C\c1ccc(O)cc1)C(=O)N1CCCC1
-5.4%	-6.0	-1.7%	1.2%	COc1ccccc1C1CC(c2ccccc2)=NN1C(=S)Nc1ccccc1 (configuration not stated)
15.0%	4.1	-1.2%	-0.2%	Cn1nc(C(=O)N2CCCc3ccccc32)c2ccccc2c1=O
-29.1%	3.2	-3.6%	-24.6%	O=c1c2ccc([N+](=O)[O-])cc2ncn1CCOc1ccccc1
?	3.3	?	-3.0%	Cc1ccc2cc(C#N)c(N3CCCN(S(=O)(=O)c4ccccc4)CC3)nc2c1
-0.4%	-4.9	0.7%	14.6%	Cc1nn(C)c(C)c1CN(Cc1nc(CCC(C)C)no1)C(C)C
2.1%	4.6	1.3%	-5.5%	O=C1Nc2cc(Cl)c(Cl)cc2N(O)N1c1ccccc1
9.4%	-0.2	-5.5%	-0.7%	CCn1cc([N+](=O)[O-])c(C(=O)N2N=C(c3ccc(OC)cc3OC)CC2c2ccccc2O)n1 (configuration not stated)
-10.5%	-5.7	-2.0%	-24.8%	S=c1[nH]nc(-c2cc(-c3ccccc3)n[nH]2)n1/N=C/C=C/c1ccccc1
6.3%	2.5[21.1 µM]	4.1%	-1.4%	CCCCCCCCS(=O)CCC(=O)O (configuration not stated)
nt	-8.5	nt	-5.2%	CCCCCCCC1=CC2=CC(=O)C(C)(OC(C)=O)C(=O)C2=CN1CCc1ccccc1 (configuration not stated)
10.0%	nt	0.3%	nt	COc1cc(/C=C/CNC[C@H]2O[C@@H](n3ccc(=O)[nH]c3=O)[C@H](O)[C@@H]2O)ccc1O
-5.7%	3.4	-3.1%	-2.6%	O=C(c1ccncc1)N1CCN(c2ccc3ccccc3n2)CC1
?	0.2	?	11.0%	CCOC(=O)c1c(C)nc2sc(C(N)=O)c(N)c2c1-c1ccc(OC)cc1
?	-3.8	?	16.3%	Nc1nonc1C(=O)N/N=C/c1cc(Br)ccc1O
3.6%	-9.6	-1.6%	-7.8%	COc1cccc(CN2C(=O)CN(C3CCCCC3)C(=O)C2c2ccc(F)cc2)c1 (configuration not stated)
-13.6%	nt	-1.5%	0.5%	Cc1cc(OC(C)C(=O)NCCN2CCOCC2)c2c(C)cc(=O)oc2c1 (configuration not stated)
-10.1%	0.4	-1.3%	-1.3%	NS(=O)(=O)c1ccc(CCNC(=O)NC2CCCCC2)cc1
-18.3%	nt	-1.8%	nt	Cc1cccc(N2CC(C(=O)Nc3cccc(S(=O)(=O)N4CCCCC4)c3)CC2=O)c1C (configuration not stated)
0.1%	1.6	0.3%	-5.3%	Cc1cnc(CN(C)C(=O)c2cc(COc3c(F)cccc3F)on2)[nH]1
-2.0%	3.6	?	-11.8%	Cc1ccc(C(=O)Nc2ccccc2NC(=O)c2ccc(C)o2)o1

# Random excerpt: 2 records from the list.
Rango dissoc inh	GLA inh pH 4.5	Rango-impB inh	miR-21 FLuc	SMILES
-11.4%	-0.7	-0.7%	0.2%	Cn1nnnc1SCC(=O)N1CCOCC1
2.1%	4.6	1.3%	-5.5%	O=C1Nc2cc(Cl)c(Cl)cc2N(O)N1c1ccccc1

# This is a subset; the hit share may differ from the screen's.
